2A firefly: lowers the firefly signal of an FMDV 2A StopGo reporter; HEK cells with a luciferase reporter of 2A StopGo recoding; Potency, µM (top dose mostly 57.5 µM), inactives show at the top dose signal change, negative = less light; 120,000 tested, 0.23% active; active = well fitted falling curve with a large enough effect; inconclusive = small, poorly fitted or top-dose-only effect; inactive = no such curve, though single readings can be large or run the other way; note: nearly all actives have a fitted effect of over 60% in size; overnight with compound
2A Renilla: FMDV 2A StopGo reporter, Renilla signal; HEK cells with a luciferase reporter of 2A StopGo recoding; Potency, µM (highest dose often 57.5 µM), for the others: at the highest dose signal change, negative = less light; 120,000 tested, 0.32% active; AID 1745857; active means well fitted falling curve with a large enough effect; inconclusive means small, poorly fitted or top-dose-only effect; inactive means no such curve, though single readings can be large or run the other way; note: nearly all actives have a fitted effect of over 55% in size; overnight with compound
* marks the source's active call; other numbers are inactive results; ? = inconclusive; [ ] = remark or other dose. % is set by controls: 0 for no effect and ±100 for the full control effect; potency is the fitted concentration of half-maximal effect. Not all compounds are listed; count on the stated rates, not on these rows.

SMILES | 2A firefly | 2A Renilla
CC1(C)C(=O)N(CC(=O)NC2CC2)c2ccc(S(=O)(=O)N3CCOCC3)cc21 | 7% | 0%
COc1cc(OC)c(NC(=O)Cn2cnc3sc(C)c(S(=O)(=O)N4CCN(C)CC4)c3c2=O)cc1Cl | 10% | -6%
COC(=O)c1c(-c2cccs2)csc1NC(=O)c1ccc(C(C)(C)C)cc1 | -6% | -2%
CCOc1ccccc1NC(=O)c1c(C)cc(C)nc1SCC(=O)c1cccc(OC)c1 | 1% | -7%
Cc1ccc(-n2nnnc2CNC(=O)c2cc(C(F)(F)F)cc(C(F)(F)F)c2)cc1C | 0% | -14%
COc1cccc(-c2cc(C(=O)NCCCN3CCOCC3)c3ccccc3n2)c1 | 13% | 1%
Cc1nc(-c2cccc(N3CC(C(=O)NC4CCCC4)CC3=O)c2)no1 (centres undefined) | 5% | -2%
CC(C)N1C(=O)C(NC(=O)C(=O)NCCc2c[nH]c3ccc(Cl)cc23)c2ccccc21 (centres undefined) | -4% | -3%
COc1ccc(-c2cc(C(F)(F)F)n3nc(C(=O)Nc4cc(Cl)cc(Cl)c4)cc3n2)cc1 | -12% | -6%
Cc1ccc(S(=O)(=O)c2[nH]c(-c3ccccc3)nc2SCCC(=O)O)cc1 | -2% | 3%

Gathered by group: the entries above with a CF3 group (2)
SMILES | 2A firefly | 2A Renilla
Cc1ccc(-n2nnnc2CNC(=O)c2cc(C(F)(F)F)cc(C(F)(F)F)c2)cc1C | 0% | -14%
COc1ccc(-c2cc(C(F)(F)F)n3nc(C(=O)Nc4cc(Cl)cc(Cl)c4)cc3n2)cc1 | -12% | -6%

(listing goes on)
SMILES | 2A firefly | 2A Renilla
O=C(NC1CCOC1=O)C1CCCCC1 (centres undefined) | 1% | -11%
O=S(=O)(Nc1nc2ccccc2nc1Nc1cccc(Cl)c1)c1cccs1 | 0% | -6%
CNC(=O)NC(=O)C(C)N(C)Cc1cccc(C#N)c1 (centres undefined) | -9% | -7%
Cc1ccc(CCNC(=O)c2c(C)oc3ncn(CC(C)C)c(=O)c23)cc1 | 1% | 16%
COc1ccc(N2C(=O)CN(C3CCCC3)[C@H]3CS(=O)(=O)C[C@H]32)cc1 | 6% | 8%
O=C(CNc1ccccc1C(=O)NCc1ccco1)NC(=O)NCc1ccccc1 | -3% | -4%
C=CCN(C(=O)Cc1nn(C)c(=O)c2ccccc12)c1nc2c(s1)CCCC2 | ? | ?
Cc1cc(C)c2c(=O)c3c(oc2c1)C(=O)N(Cc1ccc(F)cc1)C3c1cccc(O)c1 (centres undefined) | -20% | 63%[activator]
COc1ccc(-c2cc(C(F)(F)F)nc(SCCC(=O)Nc3ccc(O)cc3)n2)cc1 | 11% | 16%
CCOc1ccc(-c2nnc(SCC(=O)Nc3cc(C)ccc3OC)o2)cc1 | -14% | 11%
CCCNC(=O)NCc1nc(-c2ccc(OC)cc2)oc1C | 80%[activator] | 111%[activator]
CC(C#N)OC(=O)c1sccc1-c1ccccc1 (centres undefined) | 1% | 20%
Cc1ccc(NC(=O)C(=O)NCC(c2ccc3c(c2)OCO3)N2CCOCC2)c(C)c1 (centres undefined) | -6% | 19%
Cc1ccc(NC(=O)CN2CCc3sccc3C2c2cccs2)cc1S(=O)(=O)N(C)C (centres undefined) | ? | 4%
CCCN1C(C(=O)c2ccccc2)=C(OC(=O)COc2ccccc2)c2ccccc2S1(=O)=O | -32% | 6%
Cc1ccccc1C(=O)OCc1nc(N)c2ccccc2n1 | 98%[activator] | 70%[activator]
Cc1nn(Cc2ccccc2)c(C)c1CNS(=O)(=O)c1ccccc1 | 2% | 12%
NS(=O)(=O)c1ccc(NC(=O)N2c3ccccc3Sc3ccccc32)cc1 | -8% | -11%
COCc1ccc(CNC(=O)Cc2cccs2)cc1 | 119%[activator] | 4%
CNC(=O)NC(=O)C(C)Sc1nnc(-c2ccccc2Cl)n1-c1cccc(C(F)(F)F)c1 (centres undefined) | 19% | 37%[activator]
O=C1CCCN1C(=O)CSc1nc(Nc2ccccc2)c2ccccc2n1 | 14% | 20%
O=C(NCCn1cc(SCc2ccc(F)cc2)c2ccccc21)c1c(F)cccc1F | -40% | -21%
Fc1ccc(CCNCc2ccco2)cc1 | 0% | 31%[activator][1.06 µM]
CC(C)c1ccc2oc(=O)cc(CN3CCC(C(N)=O)CC3)c2c1 | 13% | 3%
Nc1ccc(Sc2ccc(Cl)cc2)cc1 | 20% | 3%
Cc1ccc(-c2nnc(Nc3ccc(O)cc3)c3ccccc23)cc1S(=O)(=O)N1CCCCC1 | -14% | -7%
O=C(NC1CCCC1)C(Cc1ccccc1)NS(=O)(=O)c1ccc(Br)s1 (centres undefined) | -19% | 44%[activator]
Cc1cccc(OCc2nc(C#N)c(NCCCN3CCOCC3)o2)c1 | -4% | 7%
C/C(=N/Nc1cccc(Cl)c1)c1ccccc1Br | 10% | 1%
O=S(=O)(c1ccccc1)c1cnc2cc3c(cc2c1N1CCN(Cc2ccccc2)CC1)OCCO3 | -2% | 66%[activator]

One compound at a time (already shown).
O=C(NC1CCCC1)C(Cc1ccccc1)NS(=O)(=O)c1ccc(Br)s1 (centres undefined) is listed with 2A firefly: -19%; 2A Renilla: 44%[activator]
Fc1ccc(CCNCc2ccco2)cc1 is listed with 2A firefly: 0%; 2A Renilla: 31%[activator][1.06 µM]

Later entries
SMILES | 2A firefly | 2A Renilla
CC(=O)Nc1nonc1-c1nnc(SCC(=O)Nc2ccccc2Cl)n1C | -16% | -4%
CCOC(=O)COc1ccc2c(=O)c(-c3ccc4c(c3)OCCO4)c(C(=O)OCC)oc2c1 | 5% | -2%
COc1ccc(-c2noc(CN(C)S(=O)(=O)c3ccc(C)cc3)n2)c(OC)c1 | -17% | 0%
Cc1ccc2c(c1)Cc1c(nc(-c3ccc(F)cc3)nc1SCC(=O)N1CCCCC1)O2 | -14% | -12%
CCc1cc(=O)oc2cc(C)cc(OCC(=O)NCCN3CCOCC3)c12 | 14% | 9%
COc1ccc(C2SCC(=O)Nc3c2c(C)nn3C)cc1 (centres undefined) | 23% | 3%
CCC(=O)N1CCc2cc(Br)cc(S(=O)(=O)N3CCN(c4ccc(C(C)=O)cc4)CC3)c21 | -26% | -3%
CCOC(=O)c1oc2cc(OC(=O)c3ccco3)ccc2c(=O)c1-c1ccc(OC)cc1 | 59%[activator] | 61%[activator]
Cc1cccc(C)c1Nc1c(-c2ccsc2)nc2cccc(C)n12 | -15% | -12%
COc1ccc(C(=O)OCc2cc(=O)n3oc(C)cc3n2)cc1NC(=O)c1ccc(C(C)(C)C)cc1 | 5% | -9%
COc1ccc(-c2nc(CCNC(=O)c3cccs3)cs2)cc1OC | ? | ?
CCc1ccc2c(CN(C)CCOc3ccc(F)cc3)cc(=O)oc2c1 | 13% | 22%
Cc1ccc(NC(=O)C2CCN(c3nn4c(=O)cc(C)nc4s3)CC2)cc1 | -20% | -17%
Cc1ccc2nc(-c3cc(NC(=O)c4ccc5c(c4)OCCO5)ccc3Cl)oc2c1 | 39%[activator] | -13%
COCCn1cc2c(c1-c1ccc(Cl)cc1)c(=O)n(C)c(=O)n2C | -6% | -12%
Cc1ccc(NC(=O)N(Cc2ccc3c(c2)OCO3)C2CCN(Cc3ccccc3)CC2)cc1Cl | -7% | 0%
Cc1ccc(CNc2oc(-c3ccc(S(=O)(=O)N4CCc5ccccc5C4)cc3)nc2C#N)cc1 | 10% | 22%
O=C(Sc1ccccc1)c1ccccc1 | 0% | -1%
CCCn1c(=O)[nH]c(=O)c2c1nc(-c1ccc(OC)cc1)n2CCOC | 22% | 23%
COc1cc(OC)cc(C(=O)/C(=C/c2cccnc2)c2nc3ccccc3o2)c1 | ? | ?

Some of the entries so far, field by field.
> Cc1ccc(CCNC(=O)c2c(C)oc3ncn(CC(C)C)c(=O)c23)cc1
  2A firefly = 1%
  2A Renilla = 16%

> Cc1cccc(C)c1Nc1c(-c2ccsc2)nc2cccc(C)n12
  2A firefly = -15%
  2A Renilla = -12%

Later entries.
SMILES | 2A firefly | 2A Renilla
N#Cc1ccc(Oc2ccc(-c3ccccc3)cc2)cc1 | 11% | -21%
CN(C)C1(c2nnnn2-c2cccc(C(F)(F)F)c2)CCCC1 | -4% | -2%
Cc1cc2ccccc2n1CCNC(=O)c1ccc2ccccc2c1 | 0% | 18%
O=S(=O)(Nc1nc2ccccc2nc1NCCc1ccccc1)c1ccccc1 | -6% | 8%
CC1Cc2ccccc2N1C(=O)c1cccc(S(=O)(=O)Nc2ccccc2F)c1 (centres undefined) | ? | -18%
Cc1cccc(-n2cnc3cc(C(=O)NCc4ccc(F)cc4)ccc32)c1 | 13% | 53%[activator]
Clc1ccc(-c2nc3c4cnn(-c5ccccc5Br)c4ncn3n2)c(Cl)c1 | 30%[activator] | -1%
COC(=O)c1ccc(NC(=O)COc2cc(C)c(Cl)c(C)c2)cc1 | 2% | -8%
COC(=O)c1ccc(OCC2c3cc(OC)c(OC)cc3CCN2C(=O)Cc2ccc(OC)cc2)cc1 (centres undefined) | -9% | -1%
O=C(NCCCN1CCCC1=O)C1CCC1 | 24% | 11%
COc1ccc(OC)c(NC(=O)c2cc(CN3CCCC3)on2)c1 | -15% | -12%
COc1cc(/C=C/c2ccc3cccc(OC)c3n2)cc(OC)c1OC | -4% | -24%
CC(NC(=O)c1ccnc(Cl)c1)C1CC1 (centres undefined) | 13% | 10%
COc1ccccc1NC(=O)c1cc2c(C)nn(-c3ccccc3)c2s1 | -1% | -4%
Cc1ccc(CSc2ncc(CO)n2CC(=O)NC2CCCC2)cc1 | -5% | -2%
CC(C)CCOc1ccc(C(=O)Nc2cccc3cccnc23)cc1 | 20% | -8%
CN(C)c1ccc(NC(=O)c2ccccc2)cc1 | 123%[activator] | 13%
Cc1ccc2[nH]c(C)c(CC(=O)NCc3ccccc3)c2c1 | 19% | 29%
CCOC(=O)c1ccc(CN(Cc2ccc(F)cc2)S(=O)(=O)c2ccc(F)c(C(=O)Nc3c(C)cccc3C)c2)cc1 | -20% | -3%
O=C(NC1CCCCC1C(F)(F)F)c1ccc2ncsc2c1 (centres undefined) | 8.9µM* | 144%[activator]
CCOC(=O)Cn1c(=O)n(C2CCCCC2)c2nc(-c3ccc(C(C)C)cc3)nc(C(N)=O)c21 | 10% | 0%
Cn1c(=O)c2c(-c3ccccc3)n3c(c2n(C)c1=O)C(c1cccc(O)c1)OCC3 (centres undefined) | -4% | -6%
Cc1cccc(C)c1OCCCCn1c(C2CC(=O)N(c3ccc(F)cc3)C2)nc2ccccc21 (centres undefined) | 0% | ?
CCn1ccc2cc(S(=O)(=O)N3CCCN(C(=O)Nc4ccc(C)cc4Cl)CC3)ccc21 | 14% | 0%
Nc1c(C(=O)Nc2cccc(C(F)(F)F)c2)c2ccccn2c1C(=O)c1ccccc1 | -1% | -12%
O=S(=O)(Cc1cccc(F)c1)Cc1csc(-c2ccccc2)n1 | 12% | -8%[1.06 µM]
Cc1ccc(O)c(C(=O)N(C)Cc2ccc(Cl)cc2Cl)c1 | 1% | 233%[activator]
COc1ccc(OCC(=O)NCC(c2ccc(OC)cc2)N2CCOCC2)cc1 (centres undefined) | -4% | -16%
Cn1c(C(=O)NCc2ccncc2)nc2ccccc2c1=O | -17% | -19%
CCC(C(=O)Nc1ccc(C)c(C)c1)n1c(=O)c(C(F)(F)F)nc2ccccc21 (centres undefined) | -12% | -16%

Compounds shown so far with a tert-butyl group (two):
SMILES | 2A firefly | 2A Renilla
COC(=O)c1c(-c2cccs2)csc1NC(=O)c1ccc(C(C)(C)C)cc1 | -6% | -2%
COc1ccc(C(=O)OCc2cc(=O)n3oc(C)cc3n2)cc1NC(=O)c1ccc(C(C)(C)C)cc1 | 5% | -9%

Further results follow.
SMILES | 2A firefly | 2A Renilla
CCOCCCNC(=O)c1cc2cc(Cl)ccc2nc1C | -3% | -13%
COc1ccc(-c2cn3cccnc3n2)cc1NC(=O)Nc1ccc(Cl)cc1 | 0% | 29%
COCCN1CCN(c2nc(-c3cccs3)nc3scc(-c4ccccc4)c23)CC1 | 11% | -7%
O=C(Nc1ccc(N2CCCC2=O)cc1)c1ccc(Cl)cc1N1CCCC1=O | 25% | 10%
CN(C(=O)CSc1cn(CC(=O)N2CCCCC2)c2ccccc12)c1ccccc1 | 2% | 12%
Cc1cc(C)n2nc(CNC(=O)c3ccccc3Cl)nc2n1 | 7% | 11%
CC(C)CC(=O)NCc1cccs1 | 0% | -5%
COC(=O)c1ccc(F)c(NC(=O)c2ccccc2OC(F)F)c1 | 29% | 6%
COc1cc(NC(=O)CSc2nc(Cl)nc3nc[nH]c23)cc(OC)c1 | 7% | -5%
CCc1ccc(NC(=O)CC(c2cc(OC)c(OC)c(OC)c2)N2Cc3ccccc3C2=O)cc1 (centres undefined) | 7% | 219%[activator]
CC(C)CCNC(=O)c1ccc2c(c1)nc1n2CCCC1 | -53% | -11%
Cc1nc(C)c(C(=O)NCc2cccs2)s1 | 21% | 6%
COc1ccc(S(=O)(=O)c2c(C)c(NS(=O)(=O)c3ccccc3)cc(C)c2O)cc1 | ? | 60%[activator]
O=C(c1ccc2c(c1)N(Cc1cccc(F)c1)C(=O)c1ccccc1S2)N1CCOCC1 | -6% | 54%[activator]
CCCCn1c(=NC(=O)c2cc3ccccc3o2)c(C(=O)OCC)cc2c(=O)n3ccccc3nc21 | -11% | 41%[activator]
O=C(Nc1ccccc1Cl)c1cnc(N2CCOCC2)c2ccccc12 | 49%[activator] | 2%
CCCC(CCC)=NNC(=S)NC1CCCCC1 | 23% | 0%
CCSc1nc2c(c(=O)n(C)c(=O)n2C)n1Cc1ccc(Cl)cc1 | -3% | -13%
N#Cc1c(N)sc2c1CCCCC2 | -5% | -8%
COc1ccccc1C(=O)NC1(C(F)(F)F)C(=O)Nc2c1c(=O)[nH]c(=O)n2CCc1ccccc1 (centres undefined) | -25% | -18%

Bioassay records (PubChem BioAssay)
